Source: PubChem BioAssay (Center for Chemical Genomics, University of Michigan)
CDC25B CDK2 inh – human CDC25B-CDK2/CyclinA binding inhibition. P30305+P24941. z-score (test concentration not listed). 94,000 tested, 0.72% active. HTRF CDC25B-CDK2/CyclinA binding, anti-His/anti-Flag; hits give high values. AID 1259370;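 note: score is relative to mean and SD of negative controls; strong numbers were not always called active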
HIV TAR-Tat – HIV-1 TAR-Tat binding disruption; AID 1259389; HIV-1 TAR RNA, Tat peptide displacement FRET; hits give high values; z-score (concentration not given with the values); 100,000 tested, 0.6% active;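 note: score is relative to mean and SD of negative controls; some compounds called inactive have numbers as strong as hits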
Starred values were filed as active, the others as inactive; . = not tested or not shown.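 Rule for the calls: active = z-score from 3 up in half or more of its runs; inactive = the rest.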

The opening five compounds as a preview:
Values run as follows: CDC25B CDK2 inh	HIV TAR-Tat
CCOC(=O)c1c(N)sc(C(=O)N2CCCC2)c1C
    .	0.97
O=C1NCCCC1C(=O)N1CCN(C(=O)c2ccco2)CC1 (stereo not drawn)
    -3.5	0
O=C(CN1C(=O)c2ccccc2C1=O)Nc1ccccc1
    -0.9	.
O=C(C1CCN(S(=O)(=O)c2cccc3nonc23)CC1)N1CCCCC1
    -0.66	.
O=C1CC(c2ccco2)Cc2nc(N3CCN(CCO)CC3)ncc21 (stereo not drawn)
    6.4	-0.78

The list itself, previewed entries included:
Values run as follows: CDC25B CDK2 inh	HIV TAR-Tat
CCOC(=O)c1c(N)sc(C(=O)N2CCCC2)c1C
    .	0.97
O=C1NCCCC1C(=O)N1CCN(C(=O)c2ccco2)CC1 (stereo not drawn)
    -3.5	0
O=C(CN1C(=O)c2ccccc2C1=O)Nc1ccccc1
    -0.9	.
O=C(C1CCN(S(=O)(=O)c2cccc3nonc23)CC1)N1CCCCC1
    -0.66	.
O=C1CC(c2ccco2)Cc2nc(N3CCN(CCO)CC3)ncc21 (stereo not drawn)
    6.4	-0.78
COC(=O)c1cc(S(=O)(=O)NCCCN2CCCc3ccccc32)cn1C
    .	-0.22
CCOC(=O)C1CCN(c2cc3c(cc2NS(=O)(=O)c2ccc(F)cc2)n(C)c(=O)n3C)CC1
    .	-0.21
CCc1nn(CC(=O)NCCN2CCCCCC2)c(=O)c2cc3occc3n12
    -1.5	.
COc1ccc(N2CCN(Cc3cccn3-c3nnc(N4CCCC4)s3)CC2)cc1
    .	0.61
CCOc1ccc(S(=O)(=O)n2cnc3cc(C)c(C)cc32)cc1C
    -0.27	1.1

Values run as follows: CDC25B CDK2 inh	HIV TAR-Tat
N/C(Cc1cccs1)=N\OC(=O)Nc1cc(Cl)cc(Cl)c1
    -1.2	.
COc1cc(OC)c(N(C)C(=O)Cn2ncc3c([nH]c4ccccc43)c2=O)cc1Cl
    .	1.9
CCOC(=O)CN1C(=O)C(=O)c2ccccc21
    -1.1	2
CC(C)CN(CC(C)C)S(=O)(=O)c1ccc2c(c1)NC(=O)CCS2
    .	-0.23
O=C(Nc1ccc2sc(NC(=O)C3CCCCC3)nc2c1)C1CC1
    .	2.4
O=c1c2ccccc2nnn1Cc1noc(-c2ccc(Cl)cc2)n1
    .	0.74
Cc1ccc(C(=O)C2=C(O)C(=O)N(Cc3cccnc3)C2c2ccccc2F)o1 (stereo not drawn)
    -0.28	-1.1
C=CCNC(=O)C1=CC(c2ccc(OC)c(OC)c2)=NS(=O)(=O)N1C
    -1.7	3.2
CCCCCn1c(C(C)O)nc2ccccc21 (stereo not drawn)
    -1.2	1.1
O=C(NCCCN1CCN(c2cccc(Cl)c2)CC1)Nc1ccc(Br)cc1
    0.32	1.7

Among those listed so far, these contain an aryl methoxy group.
Values run as follows: CDC25B CDK2 inh	HIV TAR-Tat
COc1ccc(N2CCN(Cc3cccn3-c3nnc(N4CCCC4)s3)CC2)cc1
    .	0.61
COc1cc(OC)c(N(C)C(=O)Cn2ncc3c([nH]c4ccccc43)c2=O)cc1Cl
    .	1.9
C=CCNC(=O)C1=CC(c2ccc(OC)c(OC)c2)=NS(=O)(=O)N1C
    -1.7	3.2

(next part)
Values run as follows: CDC25B CDK2 inh	HIV TAR-Tat
CSC(SC)=C(C#N)C(=O)c1ccco1
    -0.7	.
Cc1cc(C2CCCN2C(=O)c2cc(C)on2)on1 (stereo not drawn)
    .	1.9
N#Cc1c(N)nc2c(c1-c1ccc(Cl)cc1)CCCCC2
    -2.6	0.8
O=C(O)CNc1cc(N2CCC(c3ccccc3)CC2)c2noc3c2c1C(=O)c1ccccc1-3
    5.1*	-6
CC1(C)CNC(=O)c2sc(N)nc2C1
    -0.3	.
Nc1nc(Cl)nc2c1ncn2[C@H]1C[C@H](O)[C@@H](CO)O1
    .	1.1
CCCNc1sc(S(=O)(=O)CCC)nc1S(=O)(=O)c1ccc(C)cc1
    -1.7	1.2
CCC(C)NC(=O)CSC1=NS(=O)(=O)c2ccc(C)cc2N1 (stereo not drawn)
    .	-0.45
CCc1cccc(NS(=O)(=O)c2cc(-c3cc(C)no3)ccc2CC)c1
    .	-0.05
COC(=O)CSC1=C(C#N)C(c2ccc(O)c(OC)c2)CC(=O)N1 (stereo not drawn)
    -0.98	0.51

Values run as follows: CDC25B CDK2 inh	HIV TAR-Tat
Cn1cccc1-c1cc2n(n1)CCC(=O)N2CC(=O)NCc1ccco1
    .	-1
Nc1ccc2nc(-c3ccc4nc(N)sc4c3)[nH]c2c1
    0.38	.
N#Cc1c(F)cccc1Sc1ccc(Cl)cc1
    -1.3	.
CSc1nnc(C2CC2)n1-c1cccc(Cl)c1
    -0.34	.
CCc1nc2nc(CSc3nc4ccc(NC(=O)CC(C)C)cc4s3)cc(=O)n2[nH]1
    .	0.62
CCOC(=O)c1c(C)[nH]c(C)c1S(=O)(=O)Nc1cc(OC)ccc1OC
    .	0.88
Cc1cc(-c2noc(COc3ccc(F)cc3F)n2)c2ccccc2n1
    0.96	-0.31
O=C1C2N=NN(Cc3cccc(Cl)c3)C2C(=O)N1c1ccc(Cl)cc1 (stereo not drawn)
    -1.1	1.7
CCCc1nn2c(=O)cc(COc3cc(C)cc(C)c3)nc2s1
    -1.3	1.7
c1cc2c(cc1-c1nn3cnnc3s1)OCO2
    -0.71	-0.36

Values run as follows: CDC25B CDK2 inh	HIV TAR-Tat
Cc1c(NC(=O)c2ccc3ccccc3c2)cccc1-c1nc2ncccc2o1
    -2.5	.
Clc1ccc2ncnc(-c3ccccc3)c2c1
    -2.3	.
CCCCCCn1c(CN2CCCCC2)nc2c1c(=O)n(C)c(=O)n2C
    -2.6	-0.68
COc1ccc2c(c1OC)C(=O)OC2CC(=O)c1ccc(O)cc1 (stereo not drawn)
    -1.1	0.74
COc1ccc(OC)c(C2CC(c3ccc(F)cc3)Nc3nnnn32)c1 (stereo not drawn)
    .	1.1
N#Cc1c(C(F)(F)F)cc(-c2cccs2)nc1SCC(O)CS(=O)Cc1ccccc1 (stereo not drawn)
    -0.98	.
COCCOC(=O)C1=C(N)OC2=C(C(=O)CC(C)(C)C2)C1c1ccccc1 (stereo not drawn)
    -2.1	.
Cc1oc(-c2ccccc2)nc1COc1nsnc1N1CCOCC1
    .	-1.6
Cc1cc(Cl)ccc1OCc1nc(-c2ccc(NS(C)(=O)=O)cc2)no1
    .	1.7
COc1ccc(N(C)C(=O)c2cc3c(s2)-c2ccccc2OC3)cc1
    -0.14	0.55

Values run as follows: CDC25B CDK2 inh	HIV TAR-Tat
CNc1nc(CC(C)=O)ns1
    -2.2	.
Cc1cc(C)c(C(=O)CC2(O)C(=O)N(Cc3ccccc3)c3ccccc32)c(C)c1 (stereo not drawn)
    0.73	.
Cc1nc2ncccn2c1-c1csc(Nc2ccc(Cl)cc2)n1
    -0.83	2.1
CC(=O)NCCNc1nc2c(S(=O)(=O)c3ccccc3)nnn2c2ccc(Cl)cc12
    -1.6	0.22
Cc1c(C(=O)N2CCC(C)CC2)oc2ccc(S(=O)(=O)N3CCC4(CC3)OCCO4)cc12
    0.43	.
CCCS(=O)(=O)C(C#N)c1ccccc1[N+](=O)[O-] (stereo not drawn)
    -0.16	.
CCCCSCCCNC(=O)Cn1ncc2ccsc2c1=O
    -2.8	2
O=C(O)C1C2C=CC(O2)C1C(=O)NCc1ccc2c(c1)OCO2 (stereo not drawn)
    -1.4	.
COc1ccc(-c2noc(-c3ccc(OC)cc3)n2)cc1
    -2.1	-2
O=C(c1csc(S(=O)(=O)N2CCN(C(=O)c3ccco3)CC2)c1)N1CCCC1
    .	0.51

Values run as follows: CDC25B CDK2 inh	HIV TAR-Tat
O=C(COc1ccc(F)cc1)OCc1cc(=O)n2nc(C3CC3)sc2n1
    .	1.5
CCc1nnc(SC(CC)C(=O)Nc2cc(C)ccc2C)c2cc3occc3n12 (stereo not drawn)
    .	3.1
Cc1ccc(C2CC(=O)NC(NC(=O)c3ccc4c(c3)OCO4)=N2)cc1 (stereo not drawn)
    .	0.05
COC(=O)[C@H](c1ccccc1Cl)N1CCc2sccc2C1
    .	-1.1
CCCn1c(=O)c2sccc2n2c(CCCC(=O)NCC3CCCO3)nnc12 (stereo not drawn)
    .	0.83
Cc1cc(Nc2c(O)c(=O)c2=O)no1
    .	-5.4
O=C(Nc1ccc(C(F)(F)F)cn1)c1cccnc1Oc1ccc(Cl)cc1
    -1.2	.
Oc1c(C(Nc2ccccn2)c2ccc3c(c2)OCO3)ccc2cccnc12 (stereo not drawn)
    -2	.
Cc1cc(C)c(S(=O)(=O)NCCn2nc(-c3ccc(Cl)cc3)ccc2=O)c(C)c1
    .	1.5
COC(=O)C1=C(OC(=O)Cc2ccccc2)c2ccccc2S(=O)(=O)N1C
    0.27	0.64

canonical_smiles	CDC25B CDK2 inh	HIV TAR-Tat
O=C(CSc1nc(-c2ccc(F)cc2)cc(C(F)(F)F)n1)NCc1cccnc1	0.75	1.4
Nc1c(N2CCOCC2)ccc2nsnc12	0.68	1.7
C/C(=N\O)c1sc2nc(C(F)(F)F)nn2c1C	-2.6	.
COc1ccc(-c2cc(=O)c3cc(Cl)ccc3o2)cc1	-0.21	2.6
Cc1c(C(=O)C(=O)N2CCCC2)c2ccccc2n1C	-0.74	.
Cn1cnc(S(=O)(=O)NCc2ccc(F)cc2)c1	.	2.2
CC(C)OC(=O)c1nnn(-c2nonc2N)c1CN1CCCCC1	-0.3	1.1
Cn1c(=O)[nH]c(=O)c2c1nc(N)n2CC(O)COc1ccc(Cl)cc1 (stereo not drawn)	-0.14	1
CC(C)c1ccc(NC(=O)[C@@H]2[C@@H]3C(=O)O[C@H]4C(Br)[C@H]2C[C@@H]34)cc1 (stereo partly drawn)	.	0.97
Brc1ccc(-c2noc(CCCc3ccccc3)n2)cc1	-0.46	-0.24
Cn1c(CNC(=O)CSc2nc(-c3cccc(Cl)c3)nc3cc(=O)[nH]n23)nc2ccccc21	.	-0.28
CC1=C(C(=O)OC2CCCC2)C(c2cccc(F)c2)C2=C(CC(C)(C)CC2=O)N1 (stereo not drawn)	-0.43	-0.14
Cc1ccc(OCC2SCCN2S(=O)(=O)c2ccc(Cl)s2)c([N+](=O)[O-])c1 (stereo not drawn)	-0.54	.
Cn1c2c(c(=O)[nH]c1=O)C(c1ccccc1)C1=C(N2)c2ccccc2C1=O (stereo not drawn)	-2.6	-18
O=C(NCc1n[nH]c(=O)c2ccccc12)C(=O)N1CCOCC1	.	2.2

canonical_smiles	CDC25B CDK2 inh	HIV TAR-Tat
CCOC(=O)c1c(S(=O)(=O)Nc2ccc(OCC)cc2)c(C)n(C)c1C	.	1.6
O=C(Cn1c(=O)n(-c2ccc(F)cc2)c(=O)c2sccc21)NC1CCCCC1	-4	.
O=C(NCCN1CCCCCC1)C(=O)Nc1ccc2nc3n(c(=O)c2c1)CCCCC3	-1.9	.
COc1ccc(S(=O)(=O)Nc2ccc3c(c2)N(S(=O)(=O)c2ccccc2)CCC3)cc1	.	-0.16
O=C(NCCSCc1ccc(Cl)cc1)c1ccco1	-2.5	.
CCCc1nc2nc(C)c(NS(=O)(=O)c3ccc(Cl)cc3)c(=O)n2[nH]1	-1.4	0.83
CCC(C)NC(=O)c1cn(CC)c(=O)c2cc(OC)c(OC)cc12 (stereo not drawn)	-0.38	.
CCCCNS(=O)(=O)c1ccc2c(c1)C(C)(C)C(=O)N2C	.	-0.15
Cc1cn2c(=O)cc(COC(=O)C(C)Oc3ccccc3)nc2s1 (stereo not drawn)	.	0.39
O=C(Oc1ccc(-n2cnnn2)cc1)c1ccccc1Br	-1.7	1.7
CCN(CC)C(=O)Nc1ccc2c(c1)N(CC)C(=O)c1ccccc1S2	-0.15	-0.92
O=C(Oc1cccc(NC2=NS(=O)(=O)c3ccccc32)c1)c1ccco1	1.2	.
CS(=O)(=O)N1CCCc2ccc(NS(=O)(=O)c3cccc(F)c3)cc21	.	1.4
COc1ccc(Nc2nc(N3CCC(C)CC3)nc3c2cnn3C)cc1Cl	.	1.6
CC(C)(C)C(=O)NCC(c1ccco1)S(=O)(=O)c1cccs1 (stereo not drawn)	.	1

canonical_smiles	CDC25B CDK2 inh	HIV TAR-Tat
CCOC(=O)c1c(NC(=O)C(=O)NCc2ccco2)sc2c1CC(C)(C)OC2	-1.3	1.2
O=S(=O)(c1ccc(-c2cc(C(F)(F)F)on2)s1)N1CCc2ccccc2C1	.	0.95
Cc1noc(/C=C/c2ccco2)c1S(=O)(=O)N1CCC(C(=O)N2CCCC2)CC1	.	-6
O=C(Cc1cccc2ccccc12)NNC(=O)Nc1ccc(Cl)cc1	-0.59	.
COc1ccc(N2CCN(c3c4c(nc5ncnn35)CCCC4)CC2)cc1	.	0.19
CN1CCc2c(sc(-n3cccc3)c2CNC(=O)Nc2ccc(F)cc2F)C1	3.1	-6.7
Cc1c(C(=O)NCCCN2CCN(C)CC2)sc2ncn(CC(=O)N3CCCCC3C)c(=O)c12 (stereo not drawn)	0	0.42
O=C1C(O)=C(C(=Nc2ccccc2)c2ccccc2)C(=O)N1c1ccc(Cl)cc1	-0.91	.
C=CCOc1ccc(C2C3=C(CC(C)(C)CC3=O)OC3=C2C(=O)CC(C)(C)C3)cc1OC	0.62	.
CCn1c(C(=O)N2CCCC(C(=O)NCCc3c[nH]c4ccccc34)C2)cc2sccc21 (stereo not drawn)	-1.1	.
O=C1CC(c2ccccc2)Sc2ccccc2N1Cc1ccccc1 (stereo not drawn)	-0.53	.
Cc1ccc(S(=O)(=O)/N=C(\N)NC#N)cc1	-1	.
c1nc(NN2CCCCC2)c2sccc2n1	-1.9	.
Cc1noc(/C=C/c2ccc(S(=O)(=O)NC3CCCC3)s2)c1[N+](=O)[O-]	.	0.84
COc1ccc(Oc2coc3cc(OCc4ccccc4)ccc3c2=O)cc1	0.22	-6.1
C=CCn1c(NCc2ccccc2OC)nc2ccccc21	-1.6	0.18
CCOC(=O)/C(C#N)=C/NCCc1ccncc1	0.45	.
